Screening results (PubChem BioAssay)
supercomplex = supercomplex reporter luminescence per Hoechst cell count – Hoechst nuclei count (AID 1645838). Cells, luminescence/Hoechst cell count ratio, supercomplex reporter; hits give high values. z-score at 11 µM unless noted. 2,000 tested, 5% active;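 active = mean z-score of two plates above 1.96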;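 note: control cybrid cells; higher means more mitochondrial supercomplex formation; U2OS-based cells read after two days; 0 = mean of sample wells on the plate; doses worked out from stocks diluted about 900-fold with the highest of each compound shown; many of its hits are not listed in these tables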
supercomplex cell count = second read-out of supercomplex, no call of its own (marks repeat the call); cell count; measured here: cell number, Hoechst nuclei count;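 nuclei per well as mean of two plates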
Starred values were filed as active, the others as inactive; i = inactive; . = not tested or not shown.

Structure | supercomplex | supercomplex cell count
O=C1OC2(c3ccc(O)cc3Oc3cc(O)ccc32)c2ccccc21 | -0.68 | 5632
CCC(=C(CC)c1ccc(O)cc1)c1ccc(O)cc1 | -1.1 | 5450
CC(=O)SC1CC2=CC(=O)CC[C@]2(C)[C@@H]2CC[C@@]3(C)[C@H](CC[C@@]34CCC(=O)O4)[C@@H]12 (stereo partly specified) | 0.084 | 5737
O=S(=O)(c1ccc(Cl)cc1)N1CCCC1c1cccs1 (stereo unspecified) | -0.17 | 4344
N=C1CCCN1Cc1[nH]c(=O)[nH]c(=O)c1Cl | -0.18 | 4152
Nc1nc(SCc2ccc([N+](=O)[O-])cc2)c2ncn(C3OC(CO)C(O)C3O)c2n1 (stereo unspecified) | -0.26 | 4803
CC(C)c1cc2c(N3CCN(C4=NCC(C)(C)S4)CC3)ncnc2s1 | -0.88 | 6616
CC(C)(C)C(=O)C(Oc1ccc(Cl)cc1)n1ccnc1 (stereo unspecified) | -0.11 | 4930
O=C(O)c1ccc(-c2c[nH]c3ncc(-c4ccccc4)cc23)cc1C1CCCC1 | 2.6* | 1972*
O=C1CC(c2ccc([N+](=O)[O-])cc2)=NN1c1ccccc1 | -0.4 | 6820
CCC(=O)NCC1CC1c1cccc2c1CCO2 (stereo unspecified) | -0.08 | 7056
CC(C)COC(=O)N(C)c1ccc(C(O)(C(F)(F)F)C(F)(F)F)cc1 | -0.13 | 4770
CC[C@@]1(O)C(=O)OCc2c1cc1n(c2=O)Cc2cc3c(N)cccc3nc2-1 | i | .
CC(C)(C)NC(=O)C1CC[C@@H]2[C@@H]3CC=C4C=C(C(=O)O)CC[C@]4(C)[C@@H]3CC[C@]12C (stereo partly specified) | -0.039 | 4906
CC(C)c1ccc(-c2cc(=O)c3ccccc3o2)cc1 | -0.26 | 5912
CC1(C)CCC(C)(C)c2cc(C3(c4ccc(C(=O)O)cc4)OCCO3)ccc21 | -0.19 | 4942
Cn1cc(-c2ccncc2)c(-c2ccc(OCc3ccc4ccccc4n3)cc2)n1 | 0.37 | 4759
CNC(=O)c1cccc(Oc2ccc(NC(=O)Nc3ccc(Cl)c(C(F)(F)F)c3)cc2)c1 | -1.3 | 3124
CNC(=O)c1ccc(Oc2ccc3c(c2)CCN(C2CCC2)CC3)nc1 | -0.25 | 5822
COC(=O)c1c(NC(=O)CC2SC(=N)NC2=O)sc(C)c1C (stereo unspecified) | 0.11 | 4762
CCCS(=O)(=O)Nc1ccc(F)c(C(=O)c2c[nH]c3ncc(-c4ccc(Cl)cc4)cc23)c1F | -0.89 | 5024
CC(C)(C#N)c1cc(Cn2cncn2)cc(C(C)(C)C#N)c1 | -0.1 | 6656
CC(C)(C)CC1NC(C(=O)NC2CCC(O)CC2)C(c2cccc(Cl)c2F)[C@]12C(=O)Nc1cc(Cl)ccc12 (stereo partly specified) | -1.9 | 7506
COc1cc(C2c3cc4c(cc3C(O)[C@H]3COC(=O)[C@@H]23)OCO4)cc(OC)c1OC (stereo partly specified) | i | .
COc1ccccc1Oc1ccc(N(Cc2cccnc2)S(=O)(=O)CC(F)(F)F)cc1 | 0.54 | 5858
COC1C(OC(=O)C=CC=CC=CC=CC(=O)O)CC[C@]2(CO2)C1[C@@]1(C)OC1CC=C(C)C (stereo partly specified) | 0.94 | 3990
CCCCN1CCC(CCC(=O)c2cc(Cl)c(N)cc2OC)CC1 | -0.22 | 5663
CNC(CNC(=O)N1CCCC(C(OCCNC(=O)OC)c2cccc(Cl)c2)C1)CC1CCCOC1 (stereo unspecified) | -0.35 | 6522
COc1ccc(CCNC(=O)CC(c2ccccc2)c2cccc(C)c2O)cc1OC (stereo unspecified) | 0.059 | 4942
Nc1cc2c3ccccc3ccc2c2ccccc12 | -0.63 | 4415
CNS(=O)(=O)Cc1ccc2[nH]cc(CCN(C)C)c2c1 | -0.23 | 5329
Nc1ccc(-c2ccc3ncc4ccc(=O)n(-c5cccc(C(F)(F)F)c5)c4c3c2)cn1 | i | .
Cc1cc(C(C)Nc2ccccc2)c2nc(N3CCOCC3)cc(=O)n2c1 (stereo unspecified) | 0.087 | 4791
Cc1ccc(CNc2ncnc3ccc(-c4ccc(CO)o4)cc23)o1 | 0.17 | 3938
CCc1nnc(NC(=O)CSc2nc(N)nc(SC)c2C#N)s1 | -0.36 | 4498
O=C(Oc1coc(CSc2ncccn2)cc1=O)c1ccc([N+](=O)[O-])cc1 | 0.26 | 4904
NC(=O)N1c2ccccc2C=Cc2ccccc21 | -0.44 | 5940
COc1cc2nc(N3CCCN(C)CC3)nc(NC3CCN(Cc4ccccc4)CC3)c2cc1OC | 11* | 2178*
CCCCCCCCc1ccc(CCC(N)(CO)CO)cc1 | 0.78 | 3598
CC(=O)NCCCS(=O)(=O)O | -0.53 | 6022
OCC1OC(n2cnc3c(NC4CCCC4O)ncnc32)C(O)C1O (stereo unspecified) | 0.17 | 5284
CC(C)C1CCC(C(=O)NC(Cc2ccccc2)C(=O)O)CC1 (stereo unspecified) | -0.42 | 5356
CCOC(=O)C1=C(N)Oc2cc(O)ccc2C1c1cccnc1 (stereo unspecified) | 0.33 | 6242
CN(C)CC(c1ccc(O)cc1)C1(O)CCCCC1 (stereo unspecified) | -0.49 | 6122
COc1cc(C)c(C=CC(C)=CC=CC(C)=CC(=O)O)c(C)c1C | -0.096 | 4794
C#C[C@]1(O)CC[C@@H]2[C@@H]3CCc4cc(O)ccc4[C@@H]3CC[C@@]21C | -0.4 | 5368
CC(=O)c1ccc2c(c1)c1cc(C(C)=O)ccc1n2CCNC(C)C | i | .
CC(C)c1ccccc1S(=O)(=O)c1cc(N)c2ncccc2c1[N+](=O)[O-] | 2.7* | 4416*
CC(=NNC(=O)c1cccc(S(=O)(=O)N2CCOCC2)c1)c1cc(Cl)ccc1O | 3* | 1766*
O=C(NC1CC1)c1cccc(-c2ccc3c(NC(=O)C4CC4)n[nH]c3c2)c1 | 0.4 | 2926
CC(Sc1nc2ccccc2[nH]1)C(=O)NN=Cc1cc(Br)ccc1O (stereo unspecified) | 3.9* | 3084*
COc1cc2c(NC3CCN(C(C)C)CC3)nc(C3CCCCC3)nc2cc1OCCCN1CCCC1 | 0.8 | 1728
N#CCOC(=O)c1ccc(-c2cc(=O)c3ccccc3o2)cc1 | -0.86 | 5732
Cc1cnc(NC(=O)C2=C(O)c3ccccc3S(=O)(=O)N2C)s1 | -0.2 | 4994
CN=C(NC#N)NCCSCc1nc[nH]c1C | 0.33 | 5161
NC(=O)C1CCCc2c1[nH]c1ccc(Cl)cc21 (stereo unspecified) | -0.28 | 5156
CC1CCC(C(C)C)C(O)C1 (stereo unspecified) | -0.0027 | 4915
CCN(c1nc(N)c(C(=O)N=C(N)N)nc1Cl)C(C)C | -2.6 | 5468
O=C(C(=O)c1ccc(Cl)cc1)c1ccc(Cl)cc1 | -0.19 | 6384
CCOc1ccc2nc(S(N)(=O)=O)sc2c1 | -0.64 | 6215

(next part)
Structure | supercomplex | supercomplex cell count
COC1C(N(C)C(=O)c2ccccc2)C[C@@H]2O[C@]1(C)n1c3ccccc3c3c4c(c5c6ccccc6n2c5c31)C(=O)NC4 (stereo partly specified) | i | .
COc1ccc2c(c1)CN(C)CCS2 | -1.5 | 6258
Cn1cncc1[C@@](N)(c1ccc(Cl)cc1)c1ccc2c(c1)c(-c1cccc(Cl)c1)cc(=O)n2C | 1.9 | 3704
CC1=C(C(=O)Nc2ccccc2C)C(c2cccc([N+](=O)[O-])c2)C2=C(CCCC2=O)N1 (stereo unspecified) | 0.089 | 4683
COc1cc(OC)cc(-c2ccc3ncc4ccc(=O)n(-c5ccc(N6CCNCC6)c(C(F)(F)F)c5)c4c3c2)c1 | i | .
O=S(=O)(O)c1ccc2cc(N=Nc3cc(S(=O)(=O)O)c4cccnc4c3O)ccc2c1 | -1.5 | 6780
C=CC(=O)N1CCCC(n2nc(-c3ccc(Oc4ccccc4)cc3)c3c(N)ncnc32)C1 (stereo unspecified) | -0.58 | 4582
Cc1cccc(-c2[nH]c(C(C)(C)C)nc2-c2ccc3nccnc3c2)n1 | -0.71 | 4382
CCOC(=O)C(N)Cc1ccc(-c2cc(OC(c3ccc(Cl)cc3-n3ccc(C)n3)C(F)(F)F)nc(N)n2)cc1 (stereo unspecified) | 1.7 | 2759
Nc1nc(NCCc2ccc(O)cc2)nc2nc(-c3ccco3)nn12 | 0.23 | 5766
CC(C)CC(=O)NC(C(=O)NC(C(=O)NC(CC(C)C)C(O)CC(=O)NC(C)C(=O)NC(CC(C)C)C(O)CC(=O)O)C(C)C)C(C)C (stereo unspecified) | -0.51 | 5390
NC(CCCCNC(=O)OCc1ccc([N+](=O)[O-])cc1)C(=O)N1CCCC1 (stereo unspecified) | 0.18 | 4858
CNCc1ccc(-c2cc(-c3nc(-c4ccc(S(=O)(=O)C(C)C)cc4)cnc3N)on2)cc1 | i | .
Cc1cc(C)c(S(=O)(=O)n2cc(C)cc2C)c(C)c1 | -0.14 | 4956
OCc1cc(C(O)CNCCCCCCOCCCCc2ccccc2)ccc1O (stereo unspecified) | 1.8 | 3226
COc1cc(C(=O)c2c(C)oc3c(O)c(OC)ccc23)cc(OC)c1OC | i | .
Cc1nnc(C(C)C)n1C1CC2CCC(C1)N2CCC(NC(=O)C1CCC(F)(F)CC1)c1ccccc1 (stereo unspecified) | -1.1 | 5662
CCc1cnc(N2CCC(c3nc(COc4ccc(-n5cnnn5)cc4)cs3)CC2)nc1 | -0.21 | 5061
CCN(CC)CCCCNc1ncc2cc(-c3cc(OC)cc(OC)c3)c(NC(=O)NC(C)(C)C)nc2n1 | i | .
CC(C)(C)c1cc(NC(=O)Nc2ccc(-c3cn4c(n3)sc3cc(OCCN5CCOCC5)ccc34)cc2)no1 | 0.11 | 3920
c1ccc2c(-c3cnn4cc(-c5ccc(N6CCNCC6)cc5)cnc34)ccnc2c1 | i | .
O=C(NCc1cccnc1)c1ccc(CNS(=O)(=O)c2ccc(F)cc2)cc1 | -0.53 | 4964
CCCCCC(O)C=CC1C(O)CC(O)C1CC=CCCCC(=O)O (stereo unspecified) | 0.15 | 4978
Cc1ccc(COC(=O)N2CCC(CNc3ncccn3)C(F)C2)cc1 (stereo unspecified) | -0.24 | 5206
O=C1CN2Cc3c(ccc(Cl)c3Cl)N=C2N1 | 0.33 | 6404
Cc1noc(-c2ccc(-c3ccc(CC(=O)O)cc3)cc2)c1NC(=O)OC(C)c1ccccc1Cl (stereo unspecified) | -0.91 | 6943
CC(C)(Sc1cc(C(C)(C)C)c(O)c(C(C)(C)C)c1)Sc1cc(C(C)(C)C)c(OC(=O)CCC(=O)O)c(C(C)(C)C)c1 | -1.7 | 3602
CCC(NC(=O)c1c(C)c(-c2ccccc2)nc2ccccc12)c1ccccc1 (stereo unspecified) | -0.41 | 5874
O=C(NC1CCN(CCCCC2(C(=O)NCC(F)(F)F)c3ccccc3-c3ccccc32)CC1)c1ccccc1-c1ccc(C(F)(F)F)cc1 | 1.1 | 1535
O=C1CCCC(=O)C1C(=O)c1ccc(C(F)(F)F)cc1[N+](=O)[O-] | -0.38 | 6253
O=c1c(-c2ccc(O)cc2)coc2c(O)c(O)ccc12 | 0.61 | 5734
Cc1nc(-c2ccc(OCC(C)C)c(C#N)c2)sc1C(=O)O | -0.17 | 5680
CCc1c(-c2ccccc2)c(-c2ccccc2)nn1-c1ccccc1-c1cccc(OCC(=O)O)c1 | -0.3 | 6474
CN1CC[C@H](c2c(O)cc(O)c3c(=O)cc(-c4ccccc4Cl)oc23)C(O)C1 (stereo partly specified) | i | .
O=C(Nc1c(Cl)cncc1Cl)c1ccc(OC(F)F)c(OCC2CC2)c1 | 1.7 | 5481
CC(=O)C1CC[C@H]2[C@@H]3CCC4=CC(=O)CC[C@]4(C)[C@@H]3CC[C@]12C (stereo partly specified) | -0.16 | 5111
CCCCN(Cc1ccc(C(=O)NO)cc1)C(=O)Nc1ccccc1 | 2* | 3282*
O=C(Nc1ccc([N+](=O)[O-])cc1O)Nc1ccccc1Br | i | .
CCCCCC(=O)Nc1c(C)cc(Br)cc1C | -0.28 | 4662
COc1ccc(CC(NC(=O)C(C)NC(=O)CN2CCOCC2)C(=O)NC(Cc2ccccc2)C(=O)[C@@]2(C)CO2)cc1 (stereo partly specified) | i | .
COc1ccc(C(=O)C(=O)c2ccc(OC)cc2)cc1 | -0.76 | 5881
NC(Cn1ccc(=O)c(O)c1)C(=O)O (stereo unspecified) | -0.13 | 4397
O=C(O)c1cc(Cl)cc(Cl)c1O | 0.061 | 7182
CNC(=O)C1OC(n2cnc3c(NCc4cccc(I)c4)nc(Cl)nc32)C(O)C1O (stereo unspecified) | 0.17 | 5171
CCc1nc(N)nc(N)c1-c1ccc(Cl)cc1 | 2.9* | 2212*
NC(=O)Nc1sc(-c2ccc(F)cc2)cc1C(N)=O | i | .
Cc1cc(-c2ccc(-c3cccc(O)c3)s2)ccc1O | -0.47 | 6092
CN(CCc1ccc(Cl)c(Cl)c1)CCN1CCCC1 | 0.39 | 5456
Cc1[nH]c(=O)c(C#N)cc1-c1ccncc1 | 0.53 | 6228
O=c1cc(N2CCOCC2)oc2c(-c3cccc4c3sc3ccccc34)cccc12 | 11* | 1966*

Of the compounds above, 6 contain a cyano group.
Structure | supercomplex | supercomplex cell count
CC(C)(C#N)c1cc(Cn2cncn2)cc(C(C)(C)C#N)c1 | -0.1 | 6656
CCc1nnc(NC(=O)CSc2nc(N)nc(SC)c2C#N)s1 | -0.36 | 4498
N#CCOC(=O)c1ccc(-c2cc(=O)c3ccccc3o2)cc1 | -0.86 | 5732
CN=C(NC#N)NCCSCc1nc[nH]c1C | 0.33 | 5161
Cc1nc(-c2ccc(OCC(C)C)c(C#N)c2)sc1C(=O)O | -0.17 | 5680
Cc1[nH]c(=O)c(C#N)cc1-c1ccncc1 | 0.53 | 6228

These rows are one share of the data, so the mix of outcomes need not match the whole.
